OX1R antag-1 = blocks the human orexin 1 receptor; O43613; OX1R-expressing cells, FRET antagonist read-out; inhibition, % at 6.6 µM; actives 1.8% (n = 330,000); AID 485270; in the data active = inhibition mostly above about 38%, no sharp cut-off; inactive = mostly below about 40%;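 note: 0% = agonist challenge alone and 100% = reference antagonist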
Target sequence (O43613 whole entry, looked up): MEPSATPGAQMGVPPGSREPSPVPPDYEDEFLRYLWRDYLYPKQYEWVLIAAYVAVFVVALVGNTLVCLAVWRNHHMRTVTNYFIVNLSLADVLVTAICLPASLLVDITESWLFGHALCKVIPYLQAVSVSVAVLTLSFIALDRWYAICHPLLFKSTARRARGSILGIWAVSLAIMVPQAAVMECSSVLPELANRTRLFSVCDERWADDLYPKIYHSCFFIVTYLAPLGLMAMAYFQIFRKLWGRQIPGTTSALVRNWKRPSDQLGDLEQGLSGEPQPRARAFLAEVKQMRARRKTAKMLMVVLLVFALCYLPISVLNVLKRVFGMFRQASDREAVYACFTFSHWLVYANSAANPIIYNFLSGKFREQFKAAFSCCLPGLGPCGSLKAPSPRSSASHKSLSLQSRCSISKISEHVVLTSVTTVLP
OX1R antag-2 = blocks the human orexin 1 receptor. O43613. CHO/OX1R cells, Fluo-8 calcium fluorescence, orexin A. inhibition, % at 5 µM. actives 0.43% (n = 330,000). AID 434989;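 active = inhibition above its plate's threshold, mean inhibition of all tested compounds on the plate plus 3 SD, cut at about 37% in these data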;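 note: 0% = orexin A challenge wells and 100% = SB-334867-A antagonist wells; not every result past the cut was called active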
Starred values were filed as active, the others as inactive. Not all compounds are listed; most or all hits stand in other tables.

canonical_smiles	OX1R antag-1	OX1R antag-2
CC(C)c1cc(-c2cc(C(=O)Nc3ccccc3)on2)nc(NC2CCCC2)n1	7	-17
C#CCOCCOCCOCCNc1nc(N2CCN(C(=O)[C@H](CCCN=C(N)N)n3cc(C(N)[C@@H](C)CC)nn3)CC2)nc(N2CCN(C(=O)[C@H](CC(N)=O)n3cc([C@@H](N)C(C)C)nn3)CC2)n1 (stereo partly drawn)	0	0
O=C(Nc1cnn(Cc2ccc(Cl)cc2Cl)c1)c1cc(-c2cccs2)on1	18	-7
COc1ccc(OC)c(C(O)c2nc3ccccc3n2C(C)C)c1 (stereo not drawn)	20	-22
CCN(CC)CC(=O)Nc1scc2c1c(=O)oc1ccccc12	33	-16
Nc1cc(=O)[nH]c(=O)n1CCCc1ccccc1	3	-5
CN(C)CCn1cnc2c1c(=O)[nH]c(=O)n2Cc1ccccc1	8	10
C/C(=N/NS(=O)(=O)c1ccc(Cl)cc1)c1cccc(NC(=O)c2ccc(Cl)cc2Cl)c1	41	-18
COc1cc(NC2c3ccccc3C(=O)N2Cc2ccccc2Cl)cc(OC)c1OC (stereo not drawn)	20	-24
O=C(OCCCOC(=O)c1cc[n+]([O-])cc1)c1cc[n+]([O-])cc1	18	-4
CC(=O)c1cccc(NC(=O)C(OC(=O)c2cccs2)c2ccccc2)c1 (stereo not drawn)	19	-7
CN(CC(=O)Nc1c(Cl)cccc1Cl)C(=O)c1ccccc1SCC(=O)N1CCCC1	6	-23

Entries from the list above with an NH in an aromatic ring:
canonical_smiles	OX1R antag-1	OX1R antag-2
Nc1cc(=O)[nH]c(=O)n1CCCc1ccccc1	3	-5
CN(C)CCn1cnc2c1c(=O)[nH]c(=O)n2Cc1ccccc1	8	10

The results go on.
canonical_smiles	OX1R antag-1	OX1R antag-2
COCCN(C(=O)COC(=O)/C=C/c1ccccc1Cl)c1c(N)n(Cc2ccccc2)c(=O)[nH]c1=O	14	-21
CN(CC1CCOCC1)C(=O)CC1C(=O)NCCN1C/C=C/c1ccccc1 (stereo not drawn)	24	-6
COc1ccc(C(=O)Nc2cccnc2)cc1OC	3	-21
CCN(CCCNc1ncnc2nc[nH]c12)c1cccc(C)c1	10	-25
Cc1ccc(S(=O)(=O)N2CCCN(C)c3nc4ccccc4nc32)cc1	13	-2
COc1cccc(C(=O)Nc2cccc(C(=O)NC3=NN(c4c(Cl)cc(Cl)cc4Cl)C(=O)C3)c2)c1	13	-18
COCC1=C(C(=O)OC(C)OC(=O)OC(C)C)N2C(=O)[C@@H](NC(=O)/C(=N\OC)c3csc(N)n3)[C@H]2SC1 (stereo partly drawn)	14	-7
Cc1nnc2sc(-c3cccc(NC(=O)c4cccnc4)c3)nn12	8	-6
Cc1ccccc1CC(=O)OCC(=O)Nc1ccc(C)c(S(=O)(=O)N2CCCCC2)c1	6	32
COc1ccc(OCCC(=O)NCc2ccccc2)cc1	4	5
CCCN(CCC)C(=O)c1ccc2c(c1)OCO2	16	-21
O=C(c1cc(Br)c(Br)s1)N1CCN(C/C=C/c2ccccc2)CC1	14	-18
COc1cc(C)c(C)cc1S(=O)(=O)n1c(C)nc2ccccc21	37	-13
Cc1ccc(C(=O)NCCNC(=O)c2ccc(C)o2)o1	15	-13
COc1ccc(NC(=O)C(c2ccc(C)cc2)N(C)C(=O)CNC(C)=O)cc1 (stereo not drawn)	12	-14
COc1cc2c(cc1OC)C(C)N(C(=O)Cn1ncc3c1-c1cc(C)ccc1OC3)CC2 (stereo not drawn)	23	-36
COc1ccc(CNc2nc(-c3cccnc3)nn2C(=O)CC(C)C)cc1	-7	-53
COC(=O)c1sc(=S)n(-c2ccccc2OC)c1N	12	4
COc1ccccc1NC(=O)c1ccccc1C(=O)O	8	-17
Cc1[nH]ccc(=O)c1OCc1ccc(Cl)cc1	7	-9
COc1ccc(-c2cc3c(=O)n(CC(=O)NC4CCN(Cc5ccccc5)CC4)ncn3n2)cc1	6	-10
COc1ccc(CC2(CO)CCN(C(=O)NCc3ccccc3)CC2)cc1	9	-24
CCCCCc1ccc(-c2cn(CCCOCc3ccccc3)nn2)cc1	5	-23
CCN(CC(=O)NCc1ccc(F)cc1)S(=O)(=O)c1ccc(C)cc1	-1	-14
Cc1ccc(-n2cc(CNC(C)c3cnn(C)c3)c(-c3ccc(F)cc3)n2)cc1 (stereo not drawn)	12	-59
CCOC(=O)CN1N=C(/C=C/c2ccc(C)cc2)CCC1=O	22	-17
Clc1ccccc1OCCCCN1CCNCC1	19	-9
Cc1ccc(NS(=O)(=O)c2ccc3[nH]c(=O)oc3c2)cc1Cl	3	13
C/C(=N\NC(=O)C1(C)CC1(Br)Br)c1cccc(NC(=O)C2CCC2)c1 (stereo not drawn)	20	-14
CC1CCCN(C(=O)CN(C)S(=O)(=O)c2ccc3c(c2)c(=O)n(C)c(=O)n3C)C1 (stereo not drawn)	10	-54
CCCC1C(C(=O)OCC)=C(C)NC(C)=C1C(=O)OCC	18	-25
CN(C)CCCNc1ncc(C(F)(F)F)cc1Cl	6	-11
CCC(C)(C)NC(=O)Cn1c(=O)oc2cc(S(=O)(=O)N3CC(C)CC(C)C3)ccc21 (stereo not drawn)	20	-18
Cc1ccc(C(=O)NC(=S)Nc2ccc(NC(=O)c3cccs3)cc2)cc1[N+](=O)[O-]	19	-22
Cn1c(=O)cc(OCC(=O)N2CCN(c3ccccc3F)CC2)c2ccccc21	10	-19
O=C(O)/C=C/C(=O)O	5	-4
O=C(CSc1ccc2nnc(-c3cccnc3)n2n1)NCc1ccc2c(c1)OCO2	10	-3
C=C(C)CC1Nc2ccccc2NC1CC(=C)C (stereo not drawn)	26	-18
Cc1ccccc1OCCC(=O)OCC(=O)NC1CCCCC1	19	0
CCCc1ccc(S(=O)(=O)NCCc2ccncc2)cc1	28	-9
COc1ccc(N2CCN(C(=O)CN(c3cccc(Br)c3)S(C)(=O)=O)CC2)cc1	11	0
COc1cc(C(=O)OCC(=O)Nc2ccc(SC(F)F)cc2)cc(OC)c1OC	19	-14
CC(C)c1ccc2oc(-c3ccc(NC(=O)c4ncn[nH]4)cc3)nc2c1	-1	5
CCc1cc2c(=O)c(-c3nc4ccccc4n3C)c(C)oc2c(CN2CCN(C)CC2)c1O	18	-30
COC(=O)[C@@H]1C[C@H]2CC[C@H](O)C[C@H]2N1Cc1ccc(N2CCN(C)CC2)cc1	8	-2
COc1cccc(OCC(=O)Nc2ccccc2-c2ccccc2)c1	20	-46
CCC1SC2=NCCN2C1(O)c1ccc(Cl)cc1 (stereo not drawn)	11	-12
COC(=O)CN1C(=O)C(O)(CC(=O)c2ccc(Cl)cc2)c2ccccc21 (stereo not drawn)	9	-12
Cc1[nH]nc2c1C(c1ccccc1F)NC2=O (stereo not drawn)	7	-10
O=c1[nH]c(Cc2ccc(F)cc2)nc2scc(-c3ccc(F)cc3)c12	-1	-32
Cc1ccc2cc(C3CC(c4ccco4)=NN3C(=O)CCCC(=O)O)c(Cl)nc2c1 (stereo not drawn)	11	-2
CCOc1c(Cl)cc(/C=N/O)cc1OC	4	-1
O=C(OCCc1cc2ccccc2c(=O)o1)c1cccc(Br)c1	0	34
CCCNC(=O)Nc1cccc(NC(C)=O)c1	19	-3
CCOc1ccc(NC(=O)c2sc3nc(N4CCOCC4)c4c(c3c2N)CC(C)(C)OC4)cc1	16	-27
CC(C)C(C(=O)NC(C)(C)C)N1C(=O)c2ccccc2C1=O (stereo not drawn)	36	-10
O=C(CCn1nnc(-c2cccs2)n1)N1CCc2ccccc2C1	9	-39
O=C(NN(C(=O)C1CC1)c1nc2ccccc2s1)C1CC1	16	-11
O=C(c1ccccc1)c1cnc[nH]1	9	-1
CCc1cccc2sc(NC(=O)C3CC3)nc12	24	-14

(further entries)
canonical_smiles	OX1R antag-1	OX1R antag-2
CCCCN1CN(S(=O)(=O)c2ccc(OC)cc2)c2nc3ccccc3nc21	9	-43
O=C(CSc1nnc(-c2ccncc2)o1)Oc1ccccc1	11	3
CC(=O)Nc1ccc(NC(=O)C(C)OC(=O)C2CC(=O)N(CCc3ccccc3)C2)cc1 (stereo not drawn)	13	-10
O=S(=O)(c1ccc(Cl)cc1)c1nc(-c2ccccc2F)oc1NCCCN1CCOCC1	10	-13
CCCNS(=O)(=O)c1ccc(OCC(=O)OC)cc1	10	-2
Cc1ccc(NC(=O)/C=C\C(=O)NCC(=O)O)cc1C	12	-14
Cc1ccc(Nc2nc(Cl)nc(NC(C)(C)C)n2)cc1	7	-40
Cc1cccc(C(=O)NNC(=O)C(=O)NC(C)(C)C)c1	10	10
COCCNS(=O)(=O)c1ccccc1	14	2
CCN(CC)CCN1C(=O)C(O)=C(C(=O)c2ccc(C)o2)C1c1ccccn1 (stereo not drawn)	18	-9
COC(=O)c1ccc(NC(=S)NC2CC(C)(C)NC(C)(C)C2)cc1	23	6
CCC(C(=O)N1CCCCCC1)n1nc(C)n2c(cc3occc32)c1=O (stereo not drawn)	16	-29
CC(=O)c1cccc(NC(=O)c2c(C)nn(-c3ccccc3)c2Cl)c1	15	-14
O=C(CCSc1ccccc1)NCCSCc1ccco1	14	-16
Cc1ccccc1C(=O)OCC(=O)NCc1ccco1	5	-7
O=C(CCn1nnc2ccccc21)Nc1nnc(COc2ccc(F)cc2)s1	4	-12
COc1ccc(S(=O)(=O)N2CCN(C/C=C/c3ccccc3)CC2)cc1F	15	-26
Cc1cc(CN(C)C(=O)c2cc(COc3ccc(F)cc3Cl)on2)n[nH]1	9	-20
O=c1cc(CSc2ccccn2)[nH]c(=O)[nH]1	10	2
O=C(Nc1ccc(OC(F)(F)F)cc1)c1ccc(-n2cncn2)nc1	14	-7
O=C(CN1CCN(C(c2ccccc2)c2ccccc2)CC1)N1N=CCC1c1ccccc1 (stereo not drawn)	9	-19
COc1cc(OC)c2c(-c3ccccc3)cc(=O)oc2c1C(CC(=O)N1CCOCC1)c1ccc2c(c1)OCO2 (stereo not drawn)	17	-6
Cn1c(=O)n(C)c2cc(N3CCCCC3)c(NC(=O)c3ccccc3)cc21	13	-26
COc1ccc(C(=O)OCC(=O)Nc2cc(C)on2)cc1S(=O)(=O)N1CCOCC1	19	-3
COc1cc(C(=O)N2CCCc3ccccc32)c([N+](=O)[O-])cc1OC	21	1
CCOC(=O)Cc1csc(SCC(=O)N(CC(C)C)c2c(N)n(Cc3ccccc3)c(=O)[nH]c2=O)n1	33	-15
CCOC(=O)N1CCN(S(=O)(=O)c2cc(C)c(C)cc2C)CC1	21	8
Cc1cccc(C(=O)Nc2ccccc2C(=O)NCc2ccco2)c1	4	-24
Cc1ccc(NC(=O)C[n+]2ccccc2)cc1[N+](=O)[O-]	36	-12
Cc1cc(N2CCOCC2)nc2ccc(NC(=O)CCC(=O)N3CCN(c4ccccc4F)CC3)cc12	11	-18
COc1ccc(CCNC(=O)c2nnc(Cc3c(F)cccc3Cl)o2)cc1OC	11	-33
Cc1onc(-c2ccccc2)c1C(=O)Nc1sccc1C#N	8	-8
O=C(Nc1cccc2c1CCCC2)C1CCCN(S(=O)(=O)c2cccc3nonc23)C1 (stereo not drawn)	5	-31
CC(C)(C)CN1C(N)=NC[C@H]1Cc1ccc(O)cc1	12	-10
COCC(C)n1c(SCc2ccc(C(=O)OC)o2)nc2ccccc2c1=O (stereo not drawn)	29	-47
Cc1ccccc1COCCN1CCN(S(=O)(=O)c2ccccc2)CCC1=O	23	-28
CCCN(CCC)CCNc1c(N2CCN(C(=O)OCC)CC2)c(=O)c1=O	-4	1
CCc1cc2c(=O)c(-c3nc4ccccc4[nH]3)coc2cc1OC(=O)N1CCOCC1	7	-29
COCc1cc(=O)n2[nH]c(N)nc2n1	17	-7
COc1ccc(OC)c(C2NC(=O)NC(C)=C2C(=O)Nc2ccc(C)cc2)c1 (stereo not drawn)	10	-25
COc1cccc(CSc2nc3ccccc3[nH]2)c1	22	-19
Cc1onc(-c2ccccc2Cl)c1C(=O)N1CCN(c2ccc(F)cc2)CC1	14	-5
CCn1cc(S(=O)(=O)c2ccc(Cl)cc2)c(=O)c2cc(OC)ccc21	20	-15
CC(C)OC(=O)Cn1cnc2ccc(Br)cc2c1=O	19	-8
CCO[C@@H]1OC(C(N)=O)=C[C@H](C2CC2)[C@H]1CCCO	17	-5
COC(=O)C(Cc1ccccc1)NC(=O)c1cccc(S(=O)(=O)N(C)C)c1 (stereo not drawn)	19	-9
COc1ccc(C(CNC(=O)c2c(C)nn(Cc3ccccc3)c2Cl)N2CCOCC2)cc1 (stereo not drawn)	0	-35
COc1ccc(S(=O)(=O)N2CCCCC2)cc1NS(=O)(=O)c1ccccc1F	23	-13
COc1cc(NC(=O)C2=C(N3CCOCC3)/C(=C\c3ccc(Br)cc3)CC2)cc(OC)c1OC	7	-20
O=S(=O)(NC1=NCCC1)c1cccc(NS(=O)(=O)c2ccc(F)c(Cl)c2)c1	6	2
CCNS(=O)(=O)c1cc(OC)c(Cl)cc1OC	10	-4

Arranged by number of heavy atoms (low to high): 5 of the compounds above.
canonical_smiles	OX1R antag-1	OX1R antag-2
CCNS(=O)(=O)c1cc(OC)c(Cl)cc1OC	10	-4
CCO[C@@H]1OC(C(N)=O)=C[C@H](C2CC2)[C@H]1CCCO	17	-5
CCn1cc(S(=O)(=O)c2ccc(Cl)cc2)c(=O)c2cc(OC)ccc21	20	-15
COC(=O)C(Cc1ccccc1)NC(=O)c1cccc(S(=O)(=O)N(C)C)c1 (stereo not drawn)	19	-9
CCc1cc2c(=O)c(-c3nc4ccccc4[nH]3)coc2cc1OC(=O)N1CCOCC1	7	-29

Screening results as filed in PubChem BioAssay.
